# ALR inh = inhibitors of human ALR sulfhydryl oxidase, primary screen, biochemical, H2O2 detection, HRP-luminol luminescence, single point; hit rate 3.8% among 290,000; inhibition, % (test concentration not listed); AID 485317, 2010; purified ALR, DTT oxidation; FAD-linked sulfhydryl oxidase ALR (Homo sapiens), P55789;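 active means mean and each replicate at 75% or more; inconclusive means only one of the two met; inactive means neither met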;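 further: stock transfer was 7.5 nL into about 7.5 µL; 0% = neutral wells and 100% = wells with inactivated enzyme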
# Target sequence (P55789 whole entry, looked up): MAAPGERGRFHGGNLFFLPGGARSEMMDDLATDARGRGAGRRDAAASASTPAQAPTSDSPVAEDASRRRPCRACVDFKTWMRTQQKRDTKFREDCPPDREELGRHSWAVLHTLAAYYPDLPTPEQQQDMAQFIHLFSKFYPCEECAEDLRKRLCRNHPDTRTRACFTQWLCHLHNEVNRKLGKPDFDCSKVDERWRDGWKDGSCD
# Vif TR-FRET = inhibitors of Vif binding to APOBEC3G peptide, primary screen, biochemical, TR-FRET, GST-Vif 1-94, biotin-A3G peptide, dose response retest (AID 1117319) | one-dose inhibition, %; IC50 in µM for titrated hits | Virion infectivity factor (Human immunodeficiency virus type 1 group M subtype B (isolate … | hit rate 0.57% among 260,000 | TR-FRET GST-Vif / biotin-A3G peptide binding; higher % means a stronger effect; test concentration not given here; strong numbers were not always called active;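 active means above the screen mean plus three standard deviations and confirmed in dose response; inconclusive means results disagree or hit not tested in dose response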;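 further: Vif residues 1-94 fused to GST binding biotinylated APOBEC3G peptide 110-148; 0% = full assay without inhibitor and 100% = GST in place of GST-Vif; retest series ran down from 100 µM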
# LANA-H2A inh = blockers of LANA interaction with H2A/H2B – biochemical, FP readout, HTS, primary screen. hit rate 0.6% among 320,000. cell-free LANA-H2A/H2B peptide, fluorescence polarization. AID 2629, 2010. inhibition, % (test concentration not listed). Protein LANA1 (Human herpesvirus 8 type P (isolate GK18)), Q9QR71; in the data active means inhibition mostly above about 10%, no sharp cut-off; inactive means mostly below about 6.7%;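 further: stock transfer was 7.5 nL into about 10 µL; 0% = median of vehicle wells and 100% = median of positive control wells; one replicate is shown; the record names a cut of 25% in any replicate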
# RanGTP-Impb inh = inhibitors of RanGTP-importin-beta interaction, primary screen, biochemical, FRET, CFP-Ran, YFP-importin-beta, homogeneous. Ran GTPase (GTP-bound) - importin-beta complex. cell-free CFP-Ran/YFP-importin-beta FRET ratio. inhibition, % (no concentration beside the values). hit rate 1.1% among 300,000. AID 2216, 2009;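 active means most replicates above 15%; inconclusive means exactly half above 15%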;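 further: 0% = DMSO wells and 100% = Ran loaded with GDP instead of GTP; wells of about 40 µL received 100 nL stock; the first replicate is given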
# Calb FLC = C. albicans growth inhibition with fluconazole, primary screen, CaCi-2 strain, Alamar Blue fluorescence; C. albicans CaCi-2 (fluconazole-resistant clinical isolate) + fluconazole, 48 h; hit rate 0.57% among 300,000; growth inhibition, % (concentration not given with the values); AID 1979, 2009;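 active means most replicates above 75%; inconclusive means exactly half above 75%; inactive means most below 75%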;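 further: all wells also contain fluconazole at 8 µg/ml as a sub-toxic cotreatment; 0% = median of DMSO wells and 100% = median of geldanamycin control wells; wells of about 8 µL received 7.5 nL stock; the first replicate is given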
# Beta2AR agonist = beta2AR agonists driving receptor internalization, primary screen, cell-based, FAP fluorogen, flow cytometry | Am2.2-beta2AR cells; reference of the scale not given here | response, % (no concentration beside the values) | hit rate 0.43% among 340,000 | AID 504454, 2011;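 active means response above a set limit, near 3 SD of response in nonfluorescent compounds, cut at about 42% in these data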;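 further: stock transfer was 100 nL into about 11 µL; a reference agonist was the positive control; negative values mostly stem from fluorescent compounds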
# Target sequence (P07550 whole entry, looked up): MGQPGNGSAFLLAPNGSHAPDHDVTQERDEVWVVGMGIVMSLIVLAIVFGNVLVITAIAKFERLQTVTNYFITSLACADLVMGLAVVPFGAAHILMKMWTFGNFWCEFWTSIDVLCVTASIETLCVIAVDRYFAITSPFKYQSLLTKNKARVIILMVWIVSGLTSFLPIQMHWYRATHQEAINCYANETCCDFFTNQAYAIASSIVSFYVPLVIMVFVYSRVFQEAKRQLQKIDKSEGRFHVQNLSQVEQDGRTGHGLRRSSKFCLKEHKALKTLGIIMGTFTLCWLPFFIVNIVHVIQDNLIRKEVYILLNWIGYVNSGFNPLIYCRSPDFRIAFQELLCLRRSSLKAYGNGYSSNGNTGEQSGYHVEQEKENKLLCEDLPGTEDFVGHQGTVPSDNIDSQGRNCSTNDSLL
# HNF4A DNA FP = change in binding of human HNF4A to DNA, primary screen, biochemical, fluorescence polarization, FITC-DNA. Hepatocyte nuclear factor 4-alpha (Homo sapiens), P41235. 1 h. activity change, % at 10 µM. hit rate 0.3% among 360,000; in the data active means activity change above about 30%, passing the limit was not always enough;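 further: controls were the assay level and a saturating level of protein; the project sought stronger binding though the title names inhibitors; some compounds called inactive have numbers as strong as hits; positive values seem to mean higher polarization but the record does not say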
# Target sequence (P41235 whole entry, looked up): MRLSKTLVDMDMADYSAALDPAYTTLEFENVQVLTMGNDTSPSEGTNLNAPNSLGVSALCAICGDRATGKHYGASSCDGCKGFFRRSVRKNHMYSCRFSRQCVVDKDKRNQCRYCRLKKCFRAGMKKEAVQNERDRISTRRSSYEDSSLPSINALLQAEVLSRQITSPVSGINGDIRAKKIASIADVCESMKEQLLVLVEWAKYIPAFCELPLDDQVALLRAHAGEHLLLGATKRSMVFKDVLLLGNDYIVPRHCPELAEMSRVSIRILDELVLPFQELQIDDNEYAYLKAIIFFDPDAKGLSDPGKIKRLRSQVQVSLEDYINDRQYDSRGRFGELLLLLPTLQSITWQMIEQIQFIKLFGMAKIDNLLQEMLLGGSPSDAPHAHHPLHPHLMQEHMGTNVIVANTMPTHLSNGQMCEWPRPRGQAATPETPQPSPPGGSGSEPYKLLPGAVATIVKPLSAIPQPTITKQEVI
# * marks the source's active call; other numbers are inactive results; u = inconclusive; x = not tested or not shown; & = joins results of further samples. Rows were taken by chance; any-hit rate near 6.3%.
SMILES,ALR inh,Vif TR-FRET,LANA-H2A inh,RanGTP-Impb inh,Calb FLC,Beta2AR agonist,HNF4A DNA FP
Cc1ccc(C(=O)N/C(=C\c2ccco2)C(=O)NCc2cccnc2)cc1,-4,15%,2.9,-0.6,3,-6,0.6
CCOC(=O)C1=CN(Cc2cccc(-c3ccc(Cl)nc3)c2)S(=O)(=O)N(C)C1C (centres undefined),x,4%,x,x,x,-2,2.4
O=C1/C(=C/c2ccncc2)SC(=S)N1C1CCCCC1,-8,x,-2.3,-3.3,-4,1,0.2
COc1ccc(CNC(=O)CN(C(=O)c2snc(C(N)=O)c2N)c2cccc(F)c2)cc1,x,x,-8.6,0.9,0,7,-2.8
CCn1c(C(O)c2ccc(C)cc2)nc2ccccc21 (centres undefined),-8,7%,0.2,u,-2,7,0.3
Cc1c(C(=O)N2CCCCC2)oc2ccccc12,x,6%,2.4,x,x,-1,-2.9
COc1ccccc1COC(=O)N/C=C/c1ccco1,2,29%,-3.8,-5.7,-13,1,17
O=C(Nc1cccc(S(=O)(=O)N2CCCC2)c1)c1cc(=O)[nH]c2ccccc12,x,x,1.4,x,x,1,-4.0
CSCC[C@H](Nc1ncnc2sc(C)c(C)c12)C(=O)O,-1,4%,0.4,1.5,-8,1,-0.7
Cc1ccccc1NC(=O)CN1CCN(Cc2ccccc2)CC1,-3,-12%,1.6,-0.4,2,-6,1.0
CCCCSc1ncnc2[nH]ncc12,0,x,-3.4,3.5,7,1,-0.4
O=C(O)c1cc(S(=O)(=O)N2CCOCC2)c[nH]1,x,x,-2.4,x,x,-2,-1.6
COc1ccc(-n2c(C)c(C)c3c(N)ncnc32)cc1,-4,x,2.8,u,-1,-3,1.2
CCCOc1ccc(/C=N/Nc2ccccc2[N+](=O)[O-])c(O)c1,5,3%,2.1,-1.0,4,-1,-4.9
CCN(c1ccccc1)S(=O)(=O)c1ccc(Cl)c(NC(=O)CN2CCCCCC2)c1,x,-2%,-0.8,1.5,-4,-6,-2.4
CC(C)C(=O)Nc1cccc2nsnc12,-109,-4%,-0.6,-3.3,31,-2,-1.4
C[C@@]12CCC=C[C@H]1[C@H](c1ccoc1)N(Cc1ccccc1)C2=O,-2,0%,-1.3,3.5,-13,18,2.4
O=C(NC1CCNCC1)C1CC1,-12,x,-0.4,-1.6,-2,3,-1.7
O=c1[nH]c2ccc(S(=O)(=O)N3CCC(Cc4ccccc4)CC3)cc2o1,3,-13%,-3.3,0.5,41,3,1.4
O=C(Cc1ccccc1)Nc1ccc(N2CCOCC2)cc1,15,x,-0.3,0.0,-12,4,2.4
Cc1cc(N2CCN(C)CC2)nc2ccc(NC(=S)N3CCCCC3)cc12,x,4%,x,u,27,-1,7.9
Cc1nnc(SCC(=O)Nc2c(Cl)cccc2Cl)n(N)c1=O,x,-5%,-0.3,6.1,-3,-2,-1.9
CCN(CC)S(=O)(=O)c1cc([N+](=O)[O-])ccc1NNC(=O)Nc1ccccc1,1,-1%,3.5,5.7,1,x,x
Cn1c2c(c3ccccc31)CCN1CCC[C@]21c1ccccc1,x,4%,-3.9,2.3,-11,-1,4.6
CCC(c1nnc(SC(C)C(=O)NC2CC2)n1-c1ccc(OC)cc1)N(C)C (centres undefined),-7,x,3.8,x,x,-12,0.4
CCCCc1ccc(-c2c(C#N)c(N)nc3c2CCCC3)s1,-4,0%,7.6,5.2,-1,-4,0.9
Cc1ccc(C(=O)ON=C2CCN(c3ccc([N+](=O)[O-])cc3)CC2)cc1,9,0%,-1.0,-6.8,16,11,6.8
Cc1ccc2c(c1)C(=O)C(=O)N2CCCOc1ccccc1,x,10%,1.4,0.3,-11,3,-1.7
CCOc1cc(CNC(C)(C)C)ccc1OCC(=O)Nc1cccc(C(F)(F)F)c1,1,4%,4.6,-1.5,4,2,2.7
CCn1c(O)c(N=NC2=NC(=O)CS2)c2ccccc21,2,-3%,2.8,1.6,6,-6,0.8
COc1ccc(C2NCCO2)cc1OC (centres undefined),-4,2%,-2.7,-2.3,2,-2,1.7
COC(=O)c1cc(OC)c(OC)cc1NC(=O)CC1CCCCC1,2,6%,-2.1,u,8,0,-2.8
Cc1ccc(S(=O)(=O)Nc2ccc(S(=O)(=O)N3CCCC3)cc2)cc1,-10,-1%,-4.7,u,1,7,-1.9
NC(=O)CC(NC(=O)Cc1ccc(Br)cc1)c1ccc(N2CCC(Br)CC2)c([N+](=O)[O-])c1 (centres undefined),-3,x,-1.8,-2.5,-5,-11,3.5
CC(C)CCN1CCC(CN2C(=S)NC[C@@H]2Cc2ccccc2)CC1,x,4%,x,x,x,4,0.4
CCCCCOC(=O)NC1CCS(=O)(=O)C1 (centres undefined),-3,0%,2.3,x,-27,-4,2.5
C=CCn1c(SC2CCOC2=O)nc2scc(C3CC3)c2c1=O (centres undefined),x,-2%,-0.7,-0.8,3,-7,8.2
Cc1ccc(NC(=O)COc2ccc(S(=O)(=O)N3CCOCC3)cc2)cc1,6,-3%,4.7,1.3,15,8,0.1
O=C(NCCCn1ccnc1)Nc1ccc(Cl)c(Cl)c1,1,7%,0.7,0.6,13,-2,1.0
CN(C(=O)c1sc2nc(N3CCCC3)c3c(c2c1N)CC(C)(C)OC3)c1ccccc1,24,-9%,-2.6,1.7,-3,1,2.8
Cc1cc(C)cc(OC(C)C(=O)NCCCn2ccnc2)c1 (centres undefined),-8,x,-1.8,-0.3,4,7,1.0
Cc1ccc(C)c(S(=O)(=O)N2CCC(c3nc4c(nnn4Cc4ccc5c(c4)OCCO5)c(=O)[nH]3)CC2)c1,-7,x,-1.8,1.8,4,2,2.0
CC1CC(C)CN(CCCNC(=O)C2CCCN(c3nnc(N4CCCC4=O)s3)C2)C1 (centres undefined),-3,5%,-7.3,-2.3,-6,-13,0.2
Cc1cccc(/C=N/NC(=O)c2ccc(NC(=O)c3ccccc3C)cc2)n1,-9,-6%,-1.3,2.3,-6,9,-0.6
Cc1ccc(N(C(=O)Cc2cccs2)C2C=CS(=O)(=O)C2)cc1Cl (centres undefined),2,x,0.1,0.1,36,3,1.4
O=C(CCS(=O)(=O)c1ccccc1)Nc1ccccc1-c1nc2ccccc2s1,-7,x,3.4,-1.2,-1,-5,-3.3
Cc1ccccc1C(=O)NC1CC2CCCC(C1)N2Cc1ccccc1 (centres undefined),-18,2%,-1.7,-2.5,-1,8,-2.1
COc1ccc(-c2nnc(SCC(=O)NCc3ccco3)n2C)cc1,7,-3%,-6.6,-0.7,-11,2,1.8
O=C(NC(C(=O)c1ccccc1)N1CCOCC1)c1cccs1 (centres undefined),-2,-5%,4.8,8.7,8,13,-2.2
CC1CCCN(c2nc3nonc3nc2N2CCCC(C)C2)C1 (centres undefined),-1,-2%,0.5,-2.0,-5,5,-0.7
CCOC(=O)c1sc(NC(=O)Nc2ccccc2F)nc1C,0,1%,-1.0,7.0,60,11,0.3
COc1ccccc1NC(=O)Cn1c(C)cc(=O)c2cccc(OC)c21,-2,-10%,25*,u,1,-18,2.4
COc1ccc(CCNC(=O)C(=O)NCCOc2ccccc2)cc1OC,-39,-1%,1.2,4.2,6,2,-2.4
CC(C)CCNC(=O)CN(C(=O)CCC(=O)Nc1ccccn1)c1ccc2c(c1)OCCO2,x,4%,2.3,1.2,-19,0,-3.2
CC1CCc2ccccc2N1C(=N)N(C)C (centres undefined),-1,3%,-2.2,2.9,18,-5,-0.1
CCOc1ccc2ccccc2c1C1NC(=S)N(C)C(C)=C1C(=O)OC (centres undefined),-23,8%,2.3,3.8,-3,0,-0.8
CCN(CC)C1=CC2=CC(=C(C#N)C#N)CCC2CC1 (centres undefined),u,x,-4.2,x,x,x,-99
CC(=O)C1(O)CCC2C3CCC4CC(=O)CCC4(C)C3C(=O)CC21C (centres undefined),x,-4%,x,x,x,-4,-2.1
O=C(Cc1cccs1)Nc1ccc(NC(=O)c2ccco2)cc1,-22,6%,-3.4,-0.3,-21,-10,5.1
O=C(NCc1cccnc1)c1cc2ccccc2oc1=O,-6,4%,-0.1,u,-2,-9,2.8

# Given field by field: two of the compounds above
> Cc1ccc(C(=O)ON=C2CCN(c3ccc([N+](=O)[O-])cc3)CC2)cc1
  ALR inh: 9
  Vif TR-FRET: 0%
  LANA-H2A inh: -1.0
  RanGTP-Impb inh: -6.8
  Calb FLC: 16
  Beta2AR agonist: 11
  HNF4A DNA FP: 6.8
> Cc1ccc2c(c1)C(=O)C(=O)N2CCCOc1ccccc1
  ALR inh: x
  Vif TR-FRET: 10%
  LANA-H2A inh: 1.4
  RanGTP-Impb inh: 0.3
  Calb FLC: -11
  Beta2AR agonist: 3
  HNF4A DNA FP: -1.7

# Next part
SMILES,ALR inh,Vif TR-FRET,LANA-H2A inh,RanGTP-Impb inh,Calb FLC,Beta2AR agonist,HNF4A DNA FP
COc1ccc(Cl)cc1-n1c(C)cc(C(=O)OCC(=O)N2CC(=O)Nc3ccccc32)c1C,68,3%,-0.6,-3.7,28,2,2.2
COc1cc(Cl)c(C)cc1NC(=O)CSc1nnc(-c2ccccn2)n1Cc1ccco1,2,5%,3.1,0.1,2,-10,1.5
Clc1cccc(Cl)c1C1=NOC(c2nnc(-c3ccccc3)o2)C1 (centres undefined),x,x,-7.3,u,-3,-5,-2.7
COCCOC(=O)C1=C(C)NC(SCC(=O)NC(C)(C)C)=C(C#N)C1c1ccco1 (centres undefined),x,-1%&2%,x,6.6,-9,8,-3.2
CCn1c2ccccc2c2cc(NC(=O)c3cccc([N+](=O)[O-])c3)ccc21,-7,x,79*,6.4,-3,7,3.0
O=C(Nc1nnc(S(=O)(=O)N2CCCCCC2)s1)c1ccccc1,-1,x,-5.5,-0.2,-17,6,-3.1
COc1ccc([C@H]2CC(=O)C=C(/C=C/c3ccccc3)C2)cc1,2,x,4.0,x,x,-5,0.5
Cc1ccc(C(=O)N/C(=C\c2ccccc2F)c2nc(=S)[nH][nH]2)cc1,98*,-3%,-9.8,7.3,20,-4,4.4
O=C(O)CCCCCN1C(=O)/C(=C/c2cn(-c3ccccc3)nc2-c2cccs2)SC1=S,x,5%,x,x,x,11,-4.4
CCOC(=O)c1c(N)c(C#N)c2n1CCCCC2,1,3%,2.3,-1.1,-23,-5,2.1
Cc1ccc(S(=O)(=O)N/N=C/c2ccc(OC3CSC3)cc2)cc1,-9,2%,0.5,-2.3,-7,-5,2.1
CCOc1ccc(C(CC(=O)O)n2cnnn2)cc1OC (centres undefined),-16,-2%,0.9,-3.3,12,9,-0.5
O=C(CC(NC(=O)c1ccccc1Cl)c1ccccc1)NCCc1ccc(Cl)cc1 (centres undefined),0,10%,4.2,4.7,1,0,0.1

# Some values from the list.
# In HNF4A DNA FP, `O=C(Nc1nnc(S(=O)(=O)N2CCCCCC2)s1)c1ccccc1` shows -3.1
# In ALR inh, `CCOC(=O)c1c(N)c(C#N)c2n1CCCCC2` shows 1
# In Calb FLC, `O=C(CC(NC(=O)c1ccccc1Cl)c1ccccc1)NCCc1ccc(Cl)cc1` (centres undefined) shows 1
# In LANA-H2A inh, `Clc1cccc(Cl)c1C1=NOC(c2nnc(-c3ccccc3)o2)C1` (centres undefined) shows -7.3
